Rango complex inh – qHTS Assay for Inhibitors of Rango (Ran-regulated importin-beta cargo) - Importin beta complex formation. Importin subunit beta-1 (Homo sapiens), Q14974. Rango CFP/YFP FRET sensor + importin beta, 45 min. Potency, µM (series often up to 92.2 µM), for the others: at the top dose inhibition of complex formation. 340,000 compounds, 0.031% hits. AID 540263, 2011; active = rising FRET ratio curve, often small or poorly fitted; inconclusive = mostly compound fluorescence or quenching in the first reads; inactive = flat curves in all reads;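 further: potency means the concentration at half of the fitted maximal effect; 0% = DMSO wells and 100% = buffer wells lacking importin beta; nearly all actives have a fitted effect of over 15% in size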
Target sequence (Q14974 whole entry, looked up): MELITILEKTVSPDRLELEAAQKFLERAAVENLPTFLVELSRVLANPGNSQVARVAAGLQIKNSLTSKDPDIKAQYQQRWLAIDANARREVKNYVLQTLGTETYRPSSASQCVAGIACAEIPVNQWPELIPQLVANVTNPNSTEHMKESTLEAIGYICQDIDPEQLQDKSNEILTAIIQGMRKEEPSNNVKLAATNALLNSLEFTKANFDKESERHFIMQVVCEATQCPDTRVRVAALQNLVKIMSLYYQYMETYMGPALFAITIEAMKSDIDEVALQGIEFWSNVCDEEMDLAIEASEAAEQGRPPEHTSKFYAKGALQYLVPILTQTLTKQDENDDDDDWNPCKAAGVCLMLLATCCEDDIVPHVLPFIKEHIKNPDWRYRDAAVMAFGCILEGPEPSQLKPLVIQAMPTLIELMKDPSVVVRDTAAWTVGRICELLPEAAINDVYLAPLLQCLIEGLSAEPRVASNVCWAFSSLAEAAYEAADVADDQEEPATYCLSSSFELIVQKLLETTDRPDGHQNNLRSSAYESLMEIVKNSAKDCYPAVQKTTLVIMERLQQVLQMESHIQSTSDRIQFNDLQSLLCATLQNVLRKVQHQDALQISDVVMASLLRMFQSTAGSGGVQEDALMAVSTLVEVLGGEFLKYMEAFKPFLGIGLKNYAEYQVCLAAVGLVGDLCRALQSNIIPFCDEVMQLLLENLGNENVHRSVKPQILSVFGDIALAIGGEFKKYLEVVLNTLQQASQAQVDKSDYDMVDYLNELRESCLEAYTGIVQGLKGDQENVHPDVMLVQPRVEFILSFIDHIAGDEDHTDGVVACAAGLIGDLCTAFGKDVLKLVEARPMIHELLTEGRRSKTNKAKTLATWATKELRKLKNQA
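FRET biosensor Rango (snurportin 1 IBB between N-terminal EYFP and C-terminal Cerulean), 50 nM in PBS/1 mM DTT/0.02% Tween-20/0.1% BSA, preincubated 5 min RT with compound; 0.125 microM importin beta added, 45 min RT, CFP/YFP FRET ratio read.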
GLA inh pH 4.5 – qHTS Assay for Inhibitors of Human alpha-Galactosidase at pH 4.5; Alpha-galactosidase A (Homo sapiens), P06280; activity change, negative = inhibition, % at 105 µM; 230,000 tested, under 10 active; purified enzyme, 4-MU-alpha-Gal fluorescence, pH 4.5; inconclusive = small, poorly fitted or top-dose-only inhibition, or a rising curve; inactive = flat fitted curve, though single readings scatter; no compound was filed as active;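 further: 0% = full activity with enzyme and -100% = basal without enzyme; dose as in the result columns while the protocol names 77 µM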
Rango dissoc inh – qHTS Assay for Inhibitors of RanGTP induced Rango (Ran-regulated importin-beta cargo) - Importin beta complex dissociation; 340,000 compounds, 0.071% hits; Snurportin-1 (Homo sapiens) + GTP-binding nuclear protein Ran (Homo sapiens) + Importin …; Potency, µM (series often up to 46.1 µM), without a hit: at the highest dose activity change, negative = inhibition; Biochemical FRET Rango-importin beta, RanGTP-induced dissociation; active means falling FRET ratio curve, often poorly fitted, with flat reads before Ran was added; inconclusive means other falling curves, or compound fluorescence or quenching; inactive means flat or rising ratio curve;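 further: potency means the concentration at half of the fitted maximal effect; % of control where 0% means no effect; nearly all actives have a fitted effect of over 45% in size; -100% = wells without RanGTP and RCC1; the record marks most hits as doubtful in a second field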
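Rango FRET biosensor (snurportin-1 IBB flanked by N-terminal EYFP and C-terminal CFP10) at 0.1 uM, with 0.25 uM importin beta in PBS, 1mM DTT, 0.02% Tween-20, 0.1% BSA. 0.6 uM Ran, 2mM GTP and 0.2 uM RCC1 were then added for 45 min at room temperature. Inhibition read as loss of FRET rise.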
miR-21 reporter – qHTS Assay for Modulators of miRNAs and/orActivators of miR-21; HeLa miR-21 FLuc reporter, luciferase, 48 h; Potency, µM (top dose mostly 38.3 µM), for inactives: top-dose reporter change, positive = more light; 340,000 tested, under 10 active; active = well fitted rising curve with a large enough effect; inconclusive = small, poorly fitted or top-dose-only effect; inactive = no such curve, though single readings can be large or run the other way;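 further: % of control where 0% means no effect; miR-21 action dims this reporter so a rising signal means less miR-21 action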
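Using DMEM plus 10% FBS, HeLa miR-21-FLuc cells are incubated with test compounds (final up to about 40uM) for 48 hours; firefly luciferase signal is then imaged following reagent-mediated lysis.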
An asterisk follows results filed as active; ? = inconclusive; nt = no result given. These rows are one share of the data; the hit share may differ from the screen's.

Sample of the layout (10 entries):
cpd	Molecule	Rango complex inh	GLA inh pH 4.5
1	N#C/C(=C(\O)c1ccco1)c1ccccn1	-1.9%	7
2	C[C@]12CCC3C(CC[C@H]4CCCC[C@]34C)C1CC[C@@]2(O)CNCCO (stereo not given in full)	2.5%	nt
3	O=S1CCCSC1c1cccnc1 (stereo not given)	2.0%	4
4	Cc1ccc(S(=O)(=O)CC(=O)c2cc(C)c(O)c(C)c2)cc1	-0.6%	-13
5	COc1ccc(NC2CCCN(C(=O)CCN3CCCO3)C2)cc1 (stereo not given)	1.4%	nt
6	CC(=O)Nc1cc2nn(-c3ccccc3)nc2cc1Cl	-0.6%	2
7	COc1ccc(NC(=O)c2cccc3c2C(=O)N(C2CCCCC2)C3)cc1	2.5%	nt
8	CCC(=O)Nc1cccc(NC(=O)CSc2nnnn2C)c1	4.9%	1
9	CCCCOc1ccc(OCCNC(=O)c2ccco2)cc1	-0.2%	nt
10	COc1ccc(OCCCCOc2ccccc2Cl)cc1	2.8%	6

cpd	Rango dissoc inh	miR-21 reporter
1	-21%	-30%
2	0%	-9%
3	-18%	-3%
4	-15%	-8%
5	9%	0%
6	3%	-66%
7	1%	-2%
8	-14%	-2%
9	?	-22%
10	-3%	-5%

The listing (from the top)
cpd	Molecule	Rango complex inh	GLA inh pH 4.5
1	N#C/C(=C(\O)c1ccco1)c1ccccn1	-1.9%	7
2	C[C@]12CCC3C(CC[C@H]4CCCC[C@]34C)C1CC[C@@]2(O)CNCCO (stereo not given in full)	2.5%	nt
3	O=S1CCCSC1c1cccnc1 (stereo not given)	2.0%	4
4	Cc1ccc(S(=O)(=O)CC(=O)c2cc(C)c(O)c(C)c2)cc1	-0.6%	-13
5	COc1ccc(NC2CCCN(C(=O)CCN3CCCO3)C2)cc1 (stereo not given)	1.4%	nt
6	CC(=O)Nc1cc2nn(-c3ccccc3)nc2cc1Cl	-0.6%	2
7	COc1ccc(NC(=O)c2cccc3c2C(=O)N(C2CCCCC2)C3)cc1	2.5%	nt
8	CCC(=O)Nc1cccc(NC(=O)CSc2nnnn2C)c1	4.9%	1
9	CCCCOc1ccc(OCCNC(=O)c2ccco2)cc1	-0.2%	nt
10	COc1ccc(OCCCCOc2ccccc2Cl)cc1	2.8%	6
11	CCC(NC(=O)c1ccccc1O)c1ccccc1 (stereo not given)	0.2%	-6
12	CCOc1cc(C=O)ccc1OS(=O)(=O)c1ccc(NC(C)=O)cc1	1.2%	-15

cpd	Rango dissoc inh	miR-21 reporter
1	-21%	-30%
2	0%	-9%
3	-18%	-3%
4	-15%	-8%
5	9%	0%
6	3%	-66%
7	1%	-2%
8	-14%	-2%
9	?	-22%
10	-3%	-5%
11	0%	-3%
12	9%	-4%

(list continues)
cpd	Molecule	Rango complex inh	GLA inh pH 4.5
13	COc1ccc(N(CC(=O)Nc2ccc(C)c(F)c2)S(=O)(=O)c2c(C)noc2C)cc1	-2.2%	nt
14	O=C(NCC1OCCc2ccccc21)c1cc(COc2ccc(F)cc2Cl)on1 (stereo not given)	1.7%	2
15	O=C(Nc1ccccc1Cc1ccccc1)c1ccc2c(c1)SC1=NS(=O)(=O)CCN12	-4.5%	17
16	O=S(=O)(Nc1cccc(S(=O)(=O)N2CCCCCC2)c1)c1ccccc1	-1.3%	1
17	Cn1c(=O)n(C)c2cc(NC(=O)CSc3nnc(-c4ccccc4O)n3-c3ccccc3)ccc21	0.4%	4
18	COc1ccc(/C=C2\SC(=O)N(CCc3nnc(N)s3)C2=O)cc1	-0.2%	-2
19	Cc1onc(-c2ccccc2)c1NC(=O)N(CCC#N)Cc1ccccc1	?	-6
20	Cc1ccc(Cl)cc1N1CCN(S(=O)(=O)c2c(C)[nH]c(=O)[nH]c2=O)CC1	-1.5%	-4
21	Cc1ccc(S(=O)(=O)N/N=C/c2c(C)nn(-c3ccccc3)c2C)cc1	-3.6%	-9
22	CCN(CCO)c1ncnc2onc(-c3ccc(F)cc3)c12	2.3%	nt
23	N#CC(C#N)=Cc1cccn1-c1ccc(C(=O)O)cc1	2.2%	10
24	O=C(COC(=O)/C=C/c1cccc(C(F)(F)F)c1)NC(=O)NCc1ccccc1	4.8%	nt

cpd	Rango dissoc inh	miR-21 reporter
13	-3%	-1%
14	1%	-1%
15	-26%	-14%
16	-2%	0%
17	0%	11%
18	9%	-53%
19	-15%	-1%
20	-8%	-1%
21	-27%	-9%
22	-7%	-8%
23	17%	1%
24	0%	nt

Next section.
cpd	Molecule	Rango complex inh	GLA inh pH 4.5
25	COc1ccccc1NC(=O)NNC(=O)c1ccc2c(c1)NC(=O)C(C)(C)O2	1.2%	nt
26	CCOc1ccc(-n2c(C)nc3c(cnn3-c3ccc(Cl)cc3)c2=O)cc1	1.1%	4
27	Cc1cc(C)c2c(NC(=O)C3CC3)nn(C)c2n1	-4.1%	-13
28	CC(=NN(Cc1ccccc1)c1ccccc1)c1ccccc1	-1.9%	nt
29	COCCNC(=O)c1c[nH]c2ccc(S(=O)(=O)N3CCC4(CC3)OCCO4)cc2c1=O	0.0%	-7
30	Cc1cccc(N2CCN(C(=O)c3ccc(CNc4c(N5CCC(C)CC5)c(=O)c4=O)cc3)CC2C)c1 (stereo not given)	-0.7%	0
31	CCOC(=O)c1nc(N)c(=O)n(-c2ccccc2)n1	-0.1%	0
32	Cc1nc2ccccc2n1/C(=N/S(=O)(=O)c1ccc(Br)cc1)c1ccccc1	nt	1
33	Cc1ccccc1C(=O)OC1CCCN(C)C1 (stereo not given)	0.3%	nt
34	CC1=NN(c2ccccc2)C(=O)/C1=C\N1CC(C)OC(C)C1 (stereo not given)	-5.1%	-1
35	O=C(N/N=C/c1ccc(OCCCF)cc1)c1ccc(C(F)(F)F)cc1	1.9%	3
36	O=C(NNS(=O)(=O)c1ccccc1)c1cnn(-c2ccc(Cl)cc2)c1C(F)(F)F	-5.1%	-10

cpd	Rango dissoc inh	miR-21 reporter
25	-7%	22%
26	0%	-3%
27	-9%	0%
28	0%	nt
29	5%	-1%
30	-13%	0%
31	-14%	0%
32	nt	-6%
33	2%	0%
34	-13%	-2%
35	-12%	-3%
36	2%	-7%

The list continues.
cpd	Molecule	Rango complex inh	GLA inh pH 4.5
37	Cn1c(=O)oc2cc(S(=O)(=O)Nc3ccc(Cl)cc3)ccc21	-0.5%	nt
38	CC(C)Sc1nc(NCc2ccco2)c2c3c(sc2n1)COC(C)(C)C3	-3.6%	4
39	Cc1ccc2oc(=O)c(/C=C(\O)C(C)(C)C)nc2c1	-1.4%	-3
40	Cc1onc(-c2c(F)cccc2Cl)c1C(=O)OCC(=O)c1c(N)n(C)c(=O)n(C)c1=O	-4.2%	-11
41	CC(=O)N1CCN(S(=O)(=O)c2c(C)n(C)c(=O)n(C)c2=O)CC1	2.3%	nt
42	Cc1cc2nc(/N=C(\N)NC(=O)C(C)C)nc(C)c2cc1C	-2.2%	-1
43	O=C(Nc1ccncc1)c1cc2ccccc2cc1O	?	nt
44	Cc1ccc2nc(-c3ccccc3)oc(=O)c2c1	6.5%	nt
45	Cc1ccc(NC(=O)CCCC(=O)O)c(-c2nc3ccccc3[nH]c2=O)c1	-0.5%	nt
46	COc1cccc(CNc2ccc(Br)cn2)c1O	-1.8%	-22
47	CN(CC(=O)Nc1ccc(N2CCOCC2)cc1)C(=O)CSc1ccc(Br)cc1	?	nt
48	Cn1c(=NC(=O)CS(=O)(=O)c2ccc(F)cc2)sc2ccccc21	0.2%	nt

cpd	Rango dissoc inh	miR-21 reporter
37	-1%	4%
38	-1%	-45%
39	3%	-1%
40	-7%	-16%
41	-3%	-1%
42	-10%	-4%
43	?	nt
44	22%	-13%
45	?	-6%
46	6%	-21%
47	5%	0%
48	-4%	nt

Further records:
cpd	Molecule	Rango complex inh	GLA inh pH 4.5
49	CCO[C@@H]1OC(C(=O)NCc2ccccc2)=C[C@H](c2ccc(Br)cc2)[C@H]1CCCO	0.2%	-11
50	O=C(CSc1nc2ccccc2s1)N1CCOCC1	2.3%	3
51	O=C(NCc1ccc2c(c1)OCO2)c1n[nH]c(=O)c2ccccc12	-0.3%	-4
52	Fc1ccc(C2Nc3cccc4cccc(c34)N2)cc1	?	nt
53	COc1ccc([C@H]2CC(=O)C=C(c3cc(Cl)cc(Cl)c3)C2)cc1	4.5%	nt
54	CS(=O)(=O)N1CCCC(C(=O)NCCCN2CCC(Cc3ccccc3)CC2)C1 (stereo not given)	5.3%	0
55	COc1ccc(CNCC(O)(c2ccc(F)cc2)c2ccc(F)cc2)cc1OC	-6.2%	nt
56	Oc1ccc(CN2CCCc3ccccc32)c2cccnc12	6.8%	0
57	Cc1ccc(C(=O)NNc2cc(N3CCCC3)nc(N3CCCC3)n2)cc1	?	6
58	CCOc1cc(-c2nc(C)c(C(C)=O)n2O)ccc1OCC(=O)Nc1ccccc1	1.7%	-5
59	C[C@H](CO)N1C[C@H](C)[C@@H](CN(C)C(=O)Nc2ccc3c(c2)OCO3)Oc2ccc(NC(=O)Nc3ccc(C(F)(F)F)cc3)cc2C1=O	-0.4%	nt
60	O=C(Cn1c(C(F)(F)F)nc2ccccc21)c1ccc(Br)cc1	1.0%	-1

cpd	Rango dissoc inh	miR-21 reporter
49	7%	11%
50	-8%	-21%
51	0%	1%
52	?	1%
53	14%	nt
54	5%	-10%
55	45%	18%
56	12%	?
57	?	21%
58	1%	9%
59	0%	nt
60	-4%	15%

Remaining list, next part
cpd	Molecule	Rango complex inh	GLA inh pH 4.5
61	Cc1ccc(-n2c(SCC(=O)NCCN3C(=O)CSC3=O)nnc2-c2cccc(C)c2)cc1	-4.0%	2
62	CCOc1ccc(Nc2c3c(nc4ncnn24)CC(C)CC3)cc1 (stereo not given)	1.5%	-5
63	CCc1nn2c(=O)cc(CSCC(=O)Nc3ccccc3Cl)nc2s1	-0.9%	nt
64	O=C(Nc1cccnc1)c1cccc(S(=O)(=O)Nc2cccc(Cl)c2)c1	-1.6%	nt
65	Cc1cccc(C)c1OCc1cc(C(=O)N2CCN(Cc3nccn3C)CC2)no1	-0.4%	nt
66	COc1ccc(Cl)cc1NC(=S)NCc1cccs1	-0.1%	-2
67	CC(=O)N1N=C(c2ccc(C)c([N+](=O)[O-])c2)OC1(C)C	-0.8%	-3
68	O=C1CC(c2ccc(F)cc2)Sc2nc(C34CC5CC(CC(C5)C3)C4)nn21 (stereo not given)	-1.4%	7
69	NC(=O)c1nsc(C(=O)N(c2cccc(F)c2)C(C(=O)NC2CCCC2)c2ccc(O)cc2)c1N (stereo not given)	-1.5%	nt
70	O=C(CCNS(=O)(=O)c1ccc(Br)s1)NCc1ccccc1Cl	2.0%	-7
71	CC(C)Oc1ccc(/C(O)=C2/C(=O)C(=O)N(CCN(C)C)C2c2cccs2)cc1 (stereo not given)	4.3%	-6
72	O=C(NC1CCCC1)C(c1ccco1)N(Cc1ccccc1)C(=O)c1csnn1 (stereo not given)	-3.3%	-5
73	CCCCCOc1ccc(/C=N/NC(=O)c2nnn(-c3nonc3N)c2CN2CCCCCC2)cc1	-2.3%	nt

cpd	Rango dissoc inh	miR-21 reporter
61	29%	-13%
62	-4%	-4%
63	0%	0%
64	1%	nt
65	-5%	-11%
66	2%	2%
67	-1%	-13%
68	-4%	0%
69	8%	-8%
70	6%	9%
71	0%	-22%
72	1%	-4%
73	11%	nt
